Screening data: PubChem, several laboratories
Insulin prom inh: TRM-6 insulin promoter activity inhibition | AID 1273 | inhibition, % at 2 µM | TRM-6 cells (human fetal islet line), insulin promoter-eGFP reporter, imaging; reporter expression induced with tamoxifen | 0.9% of 130,000 active;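 active = inhibition above the mean plus 3 SD, with well images judged a real hit on visual review, cut at about 60% in these data, passing the limit was not always enough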
HSV replic up: HSV replication enhancement | HSV replication augmentation in cells, fold increase | 0.005% of 220,000 active | maximum fold increase;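 active = peak rise of 1.5-fold or more in the series; tested in PC3 cells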;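 note: first round at 10 µM; read as green reporter fluorescence; hits show the peak of a series up to 25 µM; 1 = signal of infected wells without compound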
GALR2 agonist: GALR2 (human) receptor agonism | O43603 | GALR2-expressing cells, agonist activation read-out | activation, %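 (tested at 5 µM)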 | 0.48% of 140,000 active | AID 803;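 active = above mean plus 3 SD of all compounds, about 5% in these data, not always enough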;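 note: 0% = vehicle buffer wells and 100% = reference agonist at full effect; tested in CHO reporter cells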
Target sequence (O43603 whole entry, looked up): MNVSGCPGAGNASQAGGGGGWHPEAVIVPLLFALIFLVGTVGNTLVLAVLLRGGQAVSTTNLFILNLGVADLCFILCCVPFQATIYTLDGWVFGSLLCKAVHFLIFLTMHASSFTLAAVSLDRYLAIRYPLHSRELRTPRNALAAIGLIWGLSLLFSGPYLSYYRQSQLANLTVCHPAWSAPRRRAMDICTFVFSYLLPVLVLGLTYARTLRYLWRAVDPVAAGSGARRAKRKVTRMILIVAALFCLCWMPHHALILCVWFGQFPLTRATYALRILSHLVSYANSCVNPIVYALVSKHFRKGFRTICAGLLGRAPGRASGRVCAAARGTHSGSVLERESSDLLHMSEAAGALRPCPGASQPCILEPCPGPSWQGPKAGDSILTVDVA
PKD1 inh: inhibitors of human PKD1 kinase. inhibition, %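 (about 10 µM by stock and volumes)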. 0.056% of 200,000 active. Q15139. PKD1 kinase fluorescence polarization assay;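 active = inhibition of 50% or more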;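 note: controls were vehicle for no effect and a reference inhibitor for full effect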
RGS16-Gao: regulators of human RGS16-Galphao interaction; O15492+P09471; bead-based flow cytometry RGS16-Galphao binding, fluorescence; actives lie on both sides; binding response (% of control), % at 10 µM; 0.38% of 220,000 active;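 active = below 25% or above 175%, edge rows of some plates excepted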;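 note: Galphao activated by GDP with aluminum fluoride before binding; 100% = wells without compound and 0% = beads without RGS; some results beyond the cut were filed as inactive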
Target sequence (O15492 whole entry, looked up): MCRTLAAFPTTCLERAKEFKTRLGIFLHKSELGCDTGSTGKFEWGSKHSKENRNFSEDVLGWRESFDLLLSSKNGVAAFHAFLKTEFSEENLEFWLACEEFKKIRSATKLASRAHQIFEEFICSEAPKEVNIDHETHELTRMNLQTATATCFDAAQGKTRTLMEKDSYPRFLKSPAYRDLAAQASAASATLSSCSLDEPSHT
Target sequence (P09471 whole entry, looked up): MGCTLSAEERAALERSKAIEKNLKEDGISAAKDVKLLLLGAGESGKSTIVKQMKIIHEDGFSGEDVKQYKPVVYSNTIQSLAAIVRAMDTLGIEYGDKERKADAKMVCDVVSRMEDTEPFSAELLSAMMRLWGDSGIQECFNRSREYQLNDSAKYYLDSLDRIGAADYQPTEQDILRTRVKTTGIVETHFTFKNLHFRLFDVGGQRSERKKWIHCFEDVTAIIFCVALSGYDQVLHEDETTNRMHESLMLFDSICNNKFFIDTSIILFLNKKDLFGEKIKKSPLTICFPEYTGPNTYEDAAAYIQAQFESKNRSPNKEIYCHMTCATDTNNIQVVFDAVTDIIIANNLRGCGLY
Insulin prom inh cell count: recorded beside Insulin prom inh, whose call it bears; normalized cell count, %; measured here: cell count, toxicity; reference of the scale not given here;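 cells exposed to compound for 48 h; stained nuclei by imaging scaled within each plate; lower means fewer cells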
HSV replic up primary fold: second read-out of HSV replic up, no call of its own (marks repeat the call); fold increase; compound at 10 µM; measured here: primary screen fold increase 10 uM; tested in PC3 cells;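 GFP signal in the first replicate; 1 = infected wells without compound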
Active calls of the source: *; i = inactive; . = no result given; [ ] = remark or other dose.

SMILES	Insulin prom inh	Insulin prom inh cell count	HSV replic up	HSV replic up primary fold	GALR2 agonist	PKD1 inh	RGS16-Gao
Cc1cccc(C)c1Nc1nnc(SCC(=O)NCc2cccs2)s1	-8	97	i	0.96	-1.9	1	88
CCc1cc(=O)oc2cc(C)cc(OC(C)C(=O)O)c12 (centres undefined)	-3	84	i	0.81	-1.8	-1	101
CCOC(=O)Cc1c(C)nc(Cc2ccc(OC(C)C)cc2)[nH]c1=O	-33	81	i	0.83	.	-5	103
COC(=O)Cc1nnc(NC(=O)c2ccccc2)s1	-50	69	i	0.99	0.7	3	103
C=CCOc1ccc(CNCCc2ccc(S(N)(=O)=O)cc2)cc1	.	.	i	0.92	.	-10	96
N#CCCn1cc(C(=O)Nc2ccc([N+](=O)[O-])cc2)c(-c2cc3ccccc3o2)n1	-6	92	i	0.99	.	1	100
Cc1ccccc1N(CC(=O)N/N=C/c1ccc(N(C)C)cc1)C(=O)c1ccccc1	3	78	i	1	-1.8	1	99
Cc1ccccc1-c1nnc(NC(=O)CSc2nc3ccccc3s2)s1	46	98	i	0.94	-0.3	-1	103
CCOCCOc1nc(C)cc(C)c1S(=O)(=O)c1ccccc1C	56	113	i	1.1	.	-1	102
CC(=O)c1ccc(N2CCN(C(=O)c3ccco3)C(C)C2)c(F)c1 (centres undefined)	-438	39	i	1	-0.8	-2	99
CC(C)(C)c1nc(CN2CCOCC2)ccc1O	-8	54	i	1.4	-0.2	-2	105
O=C(c1ccc(CSc2nc3ccncc3[nH]2)cc1)N1CCN(c2cccc(Cl)c2)CC1	-46	70	i	0.82	-1.2	-9	117

Brought forward from above: 7 entries, then new ones.
SMILES	Insulin prom inh	Insulin prom inh cell count	HSV replic up	HSV replic up primary fold	GALR2 agonist	PKD1 inh	RGS16-Gao
N#CCCn1cc(C(=O)Nc2ccc([N+](=O)[O-])cc2)c(-c2cc3ccccc3o2)n1	-6	92	i	0.99	.	1	100
Cc1ccccc1N(CC(=O)N/N=C/c1ccc(N(C)C)cc1)C(=O)c1ccccc1	3	78	i	1	-1.8	1	99
Cc1ccccc1-c1nnc(NC(=O)CSc2nc3ccccc3s2)s1	46	98	i	0.94	-0.3	-1	103
CCOCCOc1nc(C)cc(C)c1S(=O)(=O)c1ccccc1C	56	113	i	1.1	.	-1	102
CC(=O)c1ccc(N2CCN(C(=O)c3ccco3)C(C)C2)c(F)c1 (centres undefined)	-438	39	i	1	-0.8	-2	99
CC(C)(C)c1nc(CN2CCOCC2)ccc1O	-8	54	i	1.4	-0.2	-2	105
O=C(c1ccc(CSc2nc3ccncc3[nH]2)cc1)N1CCN(c2cccc(Cl)c2)CC1	-46	70	i	0.82	-1.2	-9	117
COc1ccc(CC(=O)N2CCC(c3ccccc3)C2)cc1 (centres undefined)	.	.	i	0.95	.	-8	101
Cc1ccc(NC(=O)C(=O)NCc2ccncc2)cc1	-31	87	i	1.1	.	3	101
CCOC(=O)c1c(C2COc3ccccc3O2)csc1N (centres undefined)	14	134	i	1	-0.5	3	105
COc1ccc(OC)c(N(CC(=O)Nc2ccc3c(c2)OCO3)S(=O)(=O)c2ccccc2)c1	50	80	i	0.97	-1.1	-2	102
O=C(Nc1ccccc1)Nc1ccncc1	.	.	i	0.9	.	-5	101
C[C@H](NC(=O)Cc1cccc2ccccc12)C(=O)NCc1ccccc1	.	.	i	0.89	.	-1	100
CCc1ccc2oc(=O)cc(CN3CCC(C)CC3)c2c1	50	90	i	0.99	0.1	-4	108
COC(=O)Cn1c(=NC(=O)C(C)(C)C)sc2c(C)cc(C)cc21	.	.	i	1.2	-5.3	-6	108
O=C(Nc1ccc(F)cc1)/C(Cl)=C/c1ccccc1	.	.	i	0.9	.	5	99
CCOC(=O)c1ccc(N=Cc2nc(-c3ccccc3)oc2OC(C)=O)cc1	10	173	i	0.93	-1.1	2	84
CN(C)/C=N/c1nc2nccc(-c3ccccc3)n2n1	.	.	i	1	.	-12	102
CCOC(=O)N1CCN(C(=O)c2cnn3ccccc23)CC1	.	.	i	0.85	-1.5	-5	100
CCSc1nnc(NC(=O)c2ccc(Br)s2)s1	5	122	i	0.95	0.0	-7	103
Cc1ccc(CSCC(=O)N/N=C/c2sccc2C)cc1	-22	78	i	0.96	-2.0	-3	100
O=C(CNc1n[nH]c(=O)[nH]c1=O)N/N=C/c1cccnc1	.	.	i	1.1	-0.9	-6	103
CCOC(=O)C1CCN(C(=O)/C=C/c2cccs2)CC1	6	112	i	0.97	.	0	106
O=C(O)c1ccc(N2C(=O)CCCC2=O)cc1	.	.	i	0.91	.	.	102
Cc1occc1C(=O)NC(C)C(C)(C)C (centres undefined)	44	73	i	0.9	-0.6	-6	104
CCN1CCN(Cc2ccc(NC(=O)c3ccc(C)c(NC(=O)N4CCNC4=O)c3)cc2C(F)(F)F)CC1	.	.	i	0.62	.	.	103
CCOC(=O)N(NC(=O)C(O)(c1ccccc1)c1ccccc1)c1ccccc1	.	.	i	1.2	-1.6	9	102
CCOc1cccc2sc(NC(=O)CC)nc12	-38	47	i	0.91	2.5	2	110
COCCNC(=O)c1onc(CSc2cc(C)cc(C)c2)c1C(=O)O	-11	208	i	0.99	-2.4	-2	102
COc1cccc(C=Nc2cc(C)cc(C)c2)c1O	-29	39	i	1	-0.7	10	38
O=C1C2C3C=CC(C3)C2C(=O)N1c1ccc(-c2nc3ccccc3o2)cc1 (centres undefined)	-21	99	i	1.1	-0.8	2	106
S=c1[nH]nc(-c2ccco2)n1/N=C/c1cccc(Cl)c1Cl	7	85	i	0.94	-1.6	-4	98
CC(C)Cn1c(N)c(C(=O)CSc2nc3ccccc3n2C)c(=O)n(C)c1=O	14	133	i	0.87	-3.8	-2	100
CCCCOCCCNC(=O)N[C@@H](CCSC)C(=O)OC	.	.	i	1	-2.0	-3	109
O=C(CSc1nc2ccccc2s1)N1c2ccccc2Sc2ccc(Cl)cc21	38	121	.	.	-1.6	4	112
CSc1nccc(Oc2ccc(C#N)cc2)n1	-28	163	i	0.98	0.9	3	110
O=C(CN1CCN(Cc2ccccc2)CC1)Nc1ccc(N2CCOCC2)cc1	.	.	i	1.1	.	3	103
COc1cccc(C2=NOC(C(=O)Nc3ccc4c(c3)OCO4)C2)c1 (centres undefined)	-42	87	i	1	.	1	107
CC(=O)NC1=NN(C(C)=O)C(c2ccc(C)cc2)S1 (centres undefined)	.	.	i	1	.	-8	98
O=C1OCCC1Sc1nnnn1-c1ccccc1 (centres undefined)	-18	122	i	0.96	-1.8	-14	109
Fc1ccc(NC(=S)Nc2ccccc2Cl)cc1	.	.	i	1	.	-4	102
O=C1C2C(c3ccccc3)C=CC(c3ccccc3)C2C(=O)N1CCO (centres undefined)	.	.	i	1.2	0.5	-8	.
Cc1ccc(C(=O)N/N=C/c2nc3ccccc3n2C)cc1	.	.	i	0.74	-0.3	1	100
Cc1ccc(NC(=O)c2ccc(COc3ccc4c(c3)CCC4)cc2)c(C)c1	.	.	i	0.95	0.6	3	105
CN(C)S(=O)(=O)c1ccc(C(=O)OCc2ccc([N+](=O)[O-])cc2)cc1	7	103	i	0.95	.	-8	100
C(=N\c1nc2ccccc2n1Cc1ccccc1)/c1cccs1	-121	84	i	0.94	-1.0	-9	107
O=C(c1ccc(CS(=O)(=O)c2c(Cl)cccc2Cl)o1)N1CCCC1	.	.	i	0.93	-2.6	-5	107
Cc1cc(C)cc(NC(=O)c2ccc(NC(=O)C3C4CC5OC(=O)C3C5C4)cc2)c1 (centres undefined)	.	.	i	0.82	.	2	103
CCOc1ccccc1C1CC(c2ccc(Cl)cc2)Nc2nc(N)nn21 (centres undefined)	.	.	i	0.97	0.1	-10	100
Cc1ccnc(NS(=O)(=O)c2ccc(NC(=O)C3CCCCC3C(=O)O)cc2)n1 (centres undefined)	.	.	i	1	-0.8	-2	102
Cc1ccc2nc(SCCC(=O)O)cc(C)c2c1	-19	182	i	0.91	-1.8	3	103
CC1CC(C)CN(S(=O)(=O)c2ccc(C(=O)OCC(=O)NCCN3C(=O)CSC3=O)cc2)C1 (centres undefined)	-13	138	i	0.95	.	5	100
Cc1cccc(C)c1NC(=O)C(=O)NCCc1c[nH]c2ccccc12	-8	206	i	0.97	.	-9	104
OC(c1ccccc1)C(CN1CCOCC1)c1ccccc1 (centres undefined)	.	.	i	0.99	.	.	104
CC(=O)c1cnc2c(-c3ccc(Cl)cc3)cnn2c1C	i	52	i	0.98	-2.3	-4	107
O=C(CSc1ccc(Cl)cc1Cl)N1CCC(c2nc3ccccc3s2)CC1	-34	88	i	0.98	0.0	-7	100
FC(F)(F)c1cccc(OCCOCCn2cncn2)c1	-240	60	i	1	-2.6	-1	108
Cn1c(=O)cc(OCC(=O)N2CCC(N3CCCCC3)CC2)c2ccccc21	.	.	i	0.93	-2.5	-10	112
COc1ccccc1-c1cc2nc(C)c(CCC(=O)NCc3ccco3)c(C)n2n1	.	.	i	0.72	-1.4	5	97
O=S1(=O)N=C(N2CCN(Cc3ccc4c(c3)OCO4)CC2)c2ccccc21	38	66	i	0.94	1.0	-7	109
O=c1cc(-c2ccccc2)c2cc(Cl)c(O)c(CN3CCOCC3)c2o1	.	.	i	0.88	.	.	110
O=C(CSc1nnnn1CCCO)Nc1ccc2c(c1)OCO2	.	.	i	0.96	.	0	99
CC(C)(C)NC(=S)NC(=O)C12CCC3CC(CC(C3)C1)C2	.	.	i	1.1	.	10	99
COC(=O)C1=C(C)C(c2ccc(OC)cc2)NC(=S)N1 (centres undefined)	.	.	i	0.89	-1.4	-5	102
NC(=O)c1ccsc1NC(=O)CCS(=O)(=O)c1ccccc1	.	.	i	0.88	.	-2	104
CCOC(=O)c1c(C)[nH]c(O)c1C=Nc1ccc(C(F)(F)F)cc1	9	156	i	0.91	-2.2	15	93
Cc1ccc(-c2nc(CN(C)C)cc(CN(C)C)c2O)cc1	25	61	i	1.1	-0.4	-3	96

Remaining list, next part:
SMILES	Insulin prom inh	Insulin prom inh cell count	HSV replic up	HSV replic up primary fold	GALR2 agonist	PKD1 inh	RGS16-Gao
CCOC(=O)C1=C(C)NC(=O)NC1c1cc2c(cc1Br)OCO2 (centres undefined)	0	88	i	0.87	0.6	2	99
O=C1N=c2ccccc2=C1c1sc(NS(=O)(=O)Cc2ccccc2)nc1O	.	.	i	0.89	.	.	100
Cc1ccccc1NC(=S)NCc1cccn1C	19	87	i	1.1	-0.2	4	178*[activator]
c1cnc2ccc(C(c3nnnn3C3CCCC3)N3CCN(c4nc5ccccc5s4)CC3)cc2c1 (centres undefined)	-20	131	i	0.9	-0.6	-9	70
CNc1nccc(-c2ccc(F)cc2)c1C#N	-7	52	i	0.99	.	0	105
CC1(C)Cc2cccc(OCC(=O)Nc3cc(C(F)(F)F)ccc3N3CCOCC3)c2O1	-10	131	i	1	-1.4	0	107
NS(=O)(=O)c1ccc(CCNC(=O)CSc2nc3ccsc3c(=O)n2CC2CCC(C(=O)O)CC2)cc1 (centres undefined)	18	80	i	0.98	.	0	108
NC(=O)c1c(C(F)(F)F)cc(-c2ccccc2)nc1NCCO	.	.	i	0.91	-1.3	-3	97
O=C(Nc1cccc(Cl)c1)c1ccc2c(=O)n3c(nc2c1)CCCCC3	-50	93	.	.	-0.9	10	103
N#C/C(C(=O)NCc1ccccc1)=C1/N=C(NC(=O)c2ccco2)c2ccccc21	.	.	i	1.2	.	.	107
O=[N+]([O-])c1ccccc1CSc1nnc2ccccn12	.	.	i	1.1	.	-4	103
NC(=O)c1nnn(-c2nonc2N)c1-c1ccc([N+](=O)[O-])cc1	.	.	i	0.91	.	-1	93
CC(Nc1ccc2c(c1)OCCO2)C(=O)N1CCc2ccccc21 (centres undefined)	.	.	i	1	.	2	101
CCCCNC(=O)COC(=O)c1ccc(C)c(NC(=O)c2ccco2)c1	67	122	i	0.99	.	5	105
O=C(c1cccs1)N1N=C(c2ccccc2)CC1c1ccccc1O (centres undefined)	.	.	i	0.97	.	9	98
CN1CCN(C(=S)Nc2ccc(Cl)c(Cl)c2)CC1	-171	104	i	0.94	-0.1	1	92
COCCN1Cc2cccc(C(=O)NCc3cccnc3)c2C1=O	.	.	i	0.99	-4.4	5	141
COc1cccc(OCCNS(=O)(=O)c2cccc([N+](=O)[O-])c2)c1	.	.	i	0.91	.	2	104
CCN(C(=O)CN1C(=S)NC(C)(C)CC1C)c1ccc(C)c(C)c1 (centres undefined)	.	.	i	0.81	.	5	98
OC12CCCCC1C(c1ccc3c(c1)OCO3)N(Cc1cccc(F)c1)CC2 (centres undefined)	18	82	i	0.99	-0.2	-13	99
